Bioassay records (PubChem BioAssay)
KCNQ2 inh – KCNQ2 potassium channel inhibitors, primary screen, cell-based, CHO-K1, FluxOR thallium flux, B-score (AID 2156). 20 min; hits give low values; only compounds with negative scores are shown here; some inactives read as strong as hits. B-score at 10 µM. hit rate 1.1% among 310,000;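 active = fluorescence ratio B-score at most minus 3 library SDs, with starting brightness B-score within 2 library SDs, cut at about -5.5 in these data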
Target sequence (O88943 whole entry, looked up): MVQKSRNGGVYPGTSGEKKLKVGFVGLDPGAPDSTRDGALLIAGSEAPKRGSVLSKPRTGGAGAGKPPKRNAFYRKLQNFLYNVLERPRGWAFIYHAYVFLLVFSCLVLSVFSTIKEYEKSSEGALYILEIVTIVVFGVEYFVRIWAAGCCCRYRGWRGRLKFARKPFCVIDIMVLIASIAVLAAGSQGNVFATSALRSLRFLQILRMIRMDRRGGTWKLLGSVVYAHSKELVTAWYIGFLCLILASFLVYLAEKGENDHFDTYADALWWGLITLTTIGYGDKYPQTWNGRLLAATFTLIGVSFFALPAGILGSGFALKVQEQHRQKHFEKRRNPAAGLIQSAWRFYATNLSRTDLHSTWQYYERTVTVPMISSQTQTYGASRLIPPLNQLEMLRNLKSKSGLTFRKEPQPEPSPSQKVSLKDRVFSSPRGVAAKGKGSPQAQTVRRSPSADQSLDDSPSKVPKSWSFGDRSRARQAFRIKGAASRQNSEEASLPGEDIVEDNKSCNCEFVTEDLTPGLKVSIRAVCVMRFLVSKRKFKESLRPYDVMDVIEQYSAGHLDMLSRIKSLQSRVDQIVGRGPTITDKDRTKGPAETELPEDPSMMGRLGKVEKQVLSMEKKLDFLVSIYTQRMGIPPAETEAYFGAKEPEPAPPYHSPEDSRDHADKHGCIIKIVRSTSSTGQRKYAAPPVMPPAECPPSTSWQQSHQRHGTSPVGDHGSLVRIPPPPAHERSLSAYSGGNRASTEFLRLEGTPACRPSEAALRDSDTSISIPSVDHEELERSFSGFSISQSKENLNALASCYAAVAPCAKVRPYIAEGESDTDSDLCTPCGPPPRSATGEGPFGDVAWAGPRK
KCNQ2 inh baseline – recorded beside KCNQ2 inh, whose call it bears; B-score; measured here: initial fluorescence intensity artifact check;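 brightness before thallium and not channel activity; 0 = typical well and far values either way flag optical interference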
Numbers without * were called inactive. Only part of the results is shown (hit frequency here may not be typical).

Results for CCN(CC)Cc1oc(CO)cc(=O)c1O ?
KCNQ2 inh: inactive; KCNQ2 inh baseline: 1.1

What do the screens show for `COc1ccc2[nH]cc(CCNC(=O)Cc3ccc(Br)cc3)c2c1`?
KCNQ2 inh: inactive; KCNQ2 inh baseline: -1.2

Results for Cc1ccc(CNC(=O)/C=C/c2ccc(S(=O)(=O)NCc3ccco3)cc2)cc1 ?
KCNQ2 inh: inactive; KCNQ2 inh baseline: 1.2

What do the screens show for `COc1cc(NC(=O)c2cc([N+](=O)[O-])ccc2N2CCOCC2)ccc1NC(=O)c1ccco1`?
KCNQ2 inh: inactive; KCNQ2 inh baseline: -0.78

How did Cc1ccc2c(C)c(C(=O)Nc3cccnc3)oc2c1 do in these assays?
KCNQ2 inh: inactive; KCNQ2 inh baseline: -0.17

Results for Cc1ccc(C)c2[nH]c(=O)c(CN(Cc3ccco3)C(=S)NCC3CCCO3)cc12 (configuration not stated) ?
KCNQ2 inh: inactive; KCNQ2 inh baseline: 0.04

What do the screens show for `OC(CN=c1sc2ccccc2n1CC(O)COc1ccccc1)COc1ccccc1` (configuration not stated)?
KCNQ2 inh: inactive; KCNQ2 inh baseline: -0.01

Results for O=C(CCc1ccccc1)NCC1(c2ccccc2)CCCC1 ?
KCNQ2 inh: inactive; KCNQ2 inh baseline: -1.4

Results for CCN(CC(=O)Nc1ccccc1OC)C(=O)c1ccc(NS(=O)(=O)c2ccc(C(C)=O)cc2)cc1 ?
KCNQ2 inh: inactive; KCNQ2 inh baseline: 0.15

What do the screens show for `CCOC(=O)NNC(=O)C1CCC(C)CC1` (configuration not stated)?
KCNQ2 inh: inactive; KCNQ2 inh baseline: 0.04

How did CCc1[nH]nc2c1C(c1ccsc1)C(C#N)=C(N)O2 (configuration not stated) do in these assays?
KCNQ2 inh: inactive; KCNQ2 inh baseline: -2.2

What do the screens show for `CS(=O)(=O)c1ccccc1-c1nnc(NC(=O)Cc2ccccc2)o1`?
KCNQ2 inh: inactive; KCNQ2 inh baseline: -0.02

Results for CN(c1ccccc1)S(=O)(=O)c1cccc(NC(=O)Cn2cnc3ccccc3c2=O)c1 ?
KCNQ2 inh: inactive; KCNQ2 inh baseline: 1

Results for CC(C)c1ccc(C(=O)N2CCCN(C(=O)c3ccc(C(C)C)cc3)CC2)cc1 ?
KCNQ2 inh: inactive; KCNQ2 inh baseline: -0.83

What do the screens show for `COc1ccc(C(C(=O)NC2CCCCC2)N(C(=O)c2ccco2)c2ccccc2OC)cc1` (configuration not stated)?
KCNQ2 inh: inactive; KCNQ2 inh baseline: 1.2

How did Cc1ccc(CNC(=O)CCS(=O)(=O)c2ccc3c(c2)CC(C)N3C(=O)C2CC2)o1 (configuration not stated) do in these assays?
KCNQ2 inh: inactive; KCNQ2 inh baseline: -0.04

What do the screens show for `O=C(c1ccco1)N1N=C(C2CCCCC2)CC1(O)C(F)(F)F` (configuration not stated)?
KCNQ2 inh: inactive; KCNQ2 inh baseline: 0.93

Results for Cc1ncoc1C(=O)N1CCCC(C(=O)c2ccc3c4c(cccc24)CC3)C1 (configuration not stated) ?
KCNQ2 inh: inactive; KCNQ2 inh baseline: 1.5

What do the screens show for `CCC(CC)C(=O)Nc1cccc(/C(C)=N/NC(=O)c2c(Br)cnn2C)c1`?
KCNQ2 inh: inactive; KCNQ2 inh baseline: -0.07

What do the screens show for `Cc1nc2ccccc2nc1OCC(=O)NCc1ccc2c(c1)OCO2`?
KCNQ2 inh: inactive; KCNQ2 inh baseline: -0.28

How did COc1ccccc1Cn1c(=S)[nH]c2ccc(F)cc2c1=O do in these assays?
KCNQ2 inh: inactive; KCNQ2 inh baseline: -3.2

Results for COCCn1c(C)cc(C2=NNC(=Nc3ccccc3)SC2)c1C ?
KCNQ2 inh: inactive; KCNQ2 inh baseline: -0.68

How did C=CCn1c(CCC(=O)O)ccc1-c1ccccc1 do in these assays?
KCNQ2 inh: inactive; KCNQ2 inh baseline: 3.4

Results for Nn1c(=O)[nH]c2c([nH]c3ccccc32)c1=O ?
KCNQ2 inh: inactive; KCNQ2 inh baseline: 0.01

Looked up one by one from above:
Results for CC(C)c1ccc(C(=O)N2CCCN(C(=O)c3ccc(C(C)C)cc3)CC2)cc1 ?
KCNQ2 inh: inactive; KCNQ2 inh baseline: -0.83

How did Cc1ccc(CNC(=O)CCS(=O)(=O)c2ccc3c(c2)CC(C)N3C(=O)C2CC2)o1 (configuration not stated) do in these assays?
KCNQ2 inh: inactive; KCNQ2 inh baseline: -0.04

Results for CN(c1ccccc1)S(=O)(=O)c1cccc(NC(=O)Cn2cnc3ccccc3c2=O)c1 ?
KCNQ2 inh: inactive; KCNQ2 inh baseline: 1

What do the screens show for `O=C(c1ccco1)N1N=C(C2CCCCC2)CC1(O)C(F)(F)F` (configuration not stated)?
KCNQ2 inh: inactive; KCNQ2 inh baseline: 0.93

Next section.
Results for COc1ccc(C(=O)N[C@H](C(=O)N2CCN(c3ccccc3F)CC2)C(C)C)cc1 ?
KCNQ2 inh: inactive; KCNQ2 inh baseline: 0.1

Results for O=c1[nH]c(CN2CCN(S(=O)(=O)/C=C/c3ccccc3)CC2)nc2cc(Cl)ccc12 ?
KCNQ2 inh: inactive; KCNQ2 inh baseline: -0.2

Results for Cc1cc(-n2c(C)cc(C(=O)COc3ccccc3[N+](=O)[O-])c2C)no1 ?
KCNQ2 inh: inactive; KCNQ2 inh baseline: -1.3

What do the screens show for `CC1Oc2ccccc2OC1C(=O)Nc1nccs1` (configuration not stated)?
KCNQ2 inh: inactive; KCNQ2 inh baseline: -1.3

What do the screens show for `CCc1ccc(-c2nc(CS(=O)CC(=O)NCCCN3CCOCC3)c(C)o2)cc1` (configuration not stated)?
KCNQ2 inh: inactive; KCNQ2 inh baseline: 1.7

Results for Cc1ccc(C(=O)NC(=S)Nc2cccc3c(C)cc(C)nc23)cc1 ?
KCNQ2 inh: inactive; KCNQ2 inh baseline: -1

How did Cc1nn(CC(=O)Nc2ccc(C(C)C)cc2)c(C)c1[N+](=O)[O-] do in these assays?
KCNQ2 inh: inactive; KCNQ2 inh baseline: 0.43

Results for Cc1cc(C(=O)N/N=C/c2ccc(OCc3ccccc3)cc2)c(C)o1 ?
KCNQ2 inh: inactive; KCNQ2 inh baseline: 1.4

How did O=C1/C(=C\c2ccccc2)CCc2c1[nH]c1ccccc21 do in these assays?
KCNQ2 inh: inactive; KCNQ2 inh baseline: 0.77

How did CN(c1ccccc1C(=O)N1CCN(Cc2ccc3c(c2)OCO3)CC1)S(C)(=O)=O do in these assays?
KCNQ2 inh: inactive; KCNQ2 inh baseline: 1.1

What do the screens show for `COc1ccccc1N(CC(=O)NCCSCc1cccc(Cl)c1)S(C)(=O)=O`?
KCNQ2 inh: inactive; KCNQ2 inh baseline: -0.47

How did O=C1CCC(C(=O)N2CCc3c(Cl)cccc3C2)CN1CCCN1CCOCC1 (configuration not stated) do in these assays?
KCNQ2 inh: inactive; KCNQ2 inh baseline: -0.03

How did O=C(CN1CCOCC1)Nc1ncc(Cc2cccc3ccccc23)s1 do in these assays?
KCNQ2 inh: inactive; KCNQ2 inh baseline: 0.02

How did CCOC(=O)c1c(-c2ccccc2)nc2ccc(C)cn12 do in these assays?
KCNQ2 inh: inactive; KCNQ2 inh baseline: 1.2

What do the screens show for `COc1ccc(/C=C(\C#N)C(=O)NCC2CCCO2)cc1OC` (configuration not stated)?
KCNQ2 inh: inactive; KCNQ2 inh baseline: -0.72

How did Cc1ccnc(SCc2nc3ccccc3s2)n1 do in these assays?
KCNQ2 inh: inactive; KCNQ2 inh baseline: -2.1

What do the screens show for `O=C(Nc1ccc(O)cc1)/C(=C\C=C\c1ccccc1)NC(=O)c1ccccc1`?
KCNQ2 inh: inactive; KCNQ2 inh baseline: 0.03

How did COc1ccc(CN2CCN(Cc3csc(C(C)=O)c3)CC2CCO)c(C)c1C (configuration not stated) do in these assays?
KCNQ2 inh: inactive; KCNQ2 inh baseline: 1.4

Results for CCN(CC)c1nc(Oc2ccc(C(=O)OC)cc2)nc(N2CCOCC2)n1 ?
KCNQ2 inh: inactive; KCNQ2 inh baseline: -0.25

Results for O=C(CC(NS(=O)(=O)c1ccc(Cl)cc1)c1ccco1)NCc1ccco1 (configuration not stated) ?
KCNQ2 inh: inactive; KCNQ2 inh baseline: -0.83

Results for O=[N+]([O-])c1cccc2c1ccc1ncccc12 ?
KCNQ2 inh: inactive; KCNQ2 inh baseline: -0.73

Results for Cc1ccc(S(=O)(=O)Nc2cccc(-c3ccc4nncn4n3)c2)cc1 ?
KCNQ2 inh: inactive; KCNQ2 inh baseline: 0.01

What do the screens show for `CCOC(=O)C1=C(C)NC(C)=C(C(=O)OCC)C1c1cc(N)ccc1OC(F)F`?
KCNQ2 inh: inactive; KCNQ2 inh baseline: 0.54

How did COc1ccc(CNC(=O)C2CCC(CNS(=O)(=O)c3ccccc3)CC2)cc1 (configuration not stated) do in these assays?
KCNQ2 inh: inactive; KCNQ2 inh baseline: -0.02

Results for CC1(C)Cc2c(cnn2-c2ccccc2)C(NC(=O)CCc2ccc(=O)[nH]n2)C1 (configuration not stated) ?
KCNQ2 inh: inactive; KCNQ2 inh baseline: -2.1

How did COc1ccc(N2CCN(C(=O)c3cc4c(-c5ccc(Cl)cc5)nn(C)c4s3)CC2)cc1 do in these assays?
KCNQ2 inh: inactive; KCNQ2 inh baseline: -0.71

What do the screens show for `COc1cccc(C2C=C(Nc3ccccc3)C(=O)N2c2ccccc2)c1` (configuration not stated)?
KCNQ2 inh: inactive; KCNQ2 inh baseline: -0.35

Results for O=C(Nc1ccccc1)N1CC=C(c2ccc(F)cc2)CC1 ?
KCNQ2 inh: inactive; KCNQ2 inh baseline: 0.21

How did Cc1ccc(-c2nc3cc(N)ccc3o2)cc1 do in these assays?
KCNQ2 inh: inactive; KCNQ2 inh baseline: -0.53

How did O=C1CCCCC1Sc1ccc(Cl)cc1[N+](=O)[O-] (configuration not stated) do in these assays?
KCNQ2 inh: inactive; KCNQ2 inh baseline: -0.1

How did COCCn1c(C)c(C(=O)O)sc1=S do in these assays?
KCNQ2 inh: inactive; KCNQ2 inh baseline: -0.02

How did CCOC(=O)c1c(NCCN(C)C)c2ccccc2[nH]c1=O do in these assays?
KCNQ2 inh: inactive; KCNQ2 inh baseline: 0.15

Results for COC(=O)C1CCN(C(=O)Cn2nnc(-c3ccccc3)n2)CC1 ?
KCNQ2 inh: inactive; KCNQ2 inh baseline: 1.9

How did COc1ccc2c(c1)c(=O)c(C(=O)c1ccc(Cl)cc1)cn2CC(=O)Nc1ccc(F)cc1 do in these assays?
KCNQ2 inh: inactive; KCNQ2 inh baseline: 4.2

What do the screens show for `c1ccc(-c2c[n+]3c(n2-c2ccccc2)SCC3)cc1`?
KCNQ2 inh: inactive; KCNQ2 inh baseline: -0.28

Results for Cc1ccc(NC(=S)NNc2ccc(C(=O)O)cc2[N+](=O)[O-])cc1C ?
KCNQ2 inh: inactive; KCNQ2 inh baseline: 0.4

Results for COc1ccc(N2C(=NC(=O)C3CCCCC3)SC3CS(=O)(=O)CC32)cc1 (configuration not stated) ?
KCNQ2 inh: inactive; KCNQ2 inh baseline: 1.7

What do the screens show for `N[C@H](CSCc1ccccc1)C(=O)Nc1ccc([N+](=O)[O-])cc1`?
KCNQ2 inh: inactive; KCNQ2 inh baseline: -0.11

What do the screens show for `O=Cc1ccc(-c2cc(Cl)ccc2Cl)[nH]1`?
KCNQ2 inh: inactive; KCNQ2 inh baseline: 0.24

How did CSCc1ccc(C(=O)NC2CC(C)(C)Cc3c2cnn3-c2ccc(F)cc2)o1 (configuration not stated) do in these assays?
KCNQ2 inh: inactive; KCNQ2 inh baseline: -0.62

How did O=[N+]([O-])/C(C(Cl)=C(Cl)Cl)=C(\Nc1ccc(F)cc1)n1cncn1 do in these assays?
KCNQ2 inh: inactive; KCNQ2 inh baseline: 1.6

What do the screens show for `CS(=O)(=O)N(CC(=O)Nc1ccccc1C(=O)N1CCOCC1)c1cccc(F)c1`?
KCNQ2 inh: inactive; KCNQ2 inh baseline: -1.9

How did COc1ccccc1N1CCN(C(=O)NC23CC4CC(CC(C4)C2)C3)CC1 do in these assays?
KCNQ2 inh: inactive; KCNQ2 inh baseline: -1.2

What do the screens show for `Cc1c(NC(=O)C2(C)CCCCC2)c(=O)n(-c2ccccc2)n1C`?
KCNQ2 inh: inactive; KCNQ2 inh baseline: -1.1

Results for Nc1ccc(S(=O)(=O)N2CCCc3ccccc32)cc1 ?
KCNQ2 inh: inactive; KCNQ2 inh baseline: -0.58

How did COC(=O)C1=C(C)OC(N)=C(C#N)C1c1cc(OC)ccc1OC (configuration not stated) do in these assays?
KCNQ2 inh: inactive; KCNQ2 inh baseline: -1

What do the screens show for `CCOCCCNC(=S)N1C2CCC1CC(NC(=O)Nc1ccc(C(=O)OCC)cc1)C2` (configuration not stated)?
KCNQ2 inh: inactive; KCNQ2 inh baseline: 0.82

What do the screens show for `COC(=O)C1=C(C)Nc2ncnn2C1c1ccc(OCc2ccccc2)cc1` (configuration not stated)?
KCNQ2 inh: inactive; KCNQ2 inh baseline: 0.25

Results for Cc1ccc(N2CC(=O)Nc3c(sc4nc(C)cc(C)c34)C2=O)cc1 ?
KCNQ2 inh: inactive; KCNQ2 inh baseline: 0.01

Among those listed so far, three contain a COOH group.
How did C=CCn1c(CCC(=O)O)ccc1-c1ccccc1 do in these assays?
KCNQ2 inh: inactive; KCNQ2 inh baseline: 3.4

How did COCCn1c(C)c(C(=O)O)sc1=S do in these assays?
KCNQ2 inh: inactive; KCNQ2 inh baseline: -0.02

Results for Cc1ccc(NC(=S)NNc2ccc(C(=O)O)cc2[N+](=O)[O-])cc1C ?
KCNQ2 inh: inactive; KCNQ2 inh baseline: 0.4
